Screens (PubChem BioAssay)
RecA intein inh = inhibitors of M. tuberculosis RecA intein splicing. P9WHJ3. cell-free RecA intein splicing, fluorescence. inhibition, %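 (about 9 µM by stock and volumes)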. 290,000 compounds, 0.75% hits. AID 2221; in the data active = inhibition above about 30%;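 also: 0% = vehicle wells and 100% = reference inhibitor control wells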
Target sequence (P9WHJ3 whole entry, looked up): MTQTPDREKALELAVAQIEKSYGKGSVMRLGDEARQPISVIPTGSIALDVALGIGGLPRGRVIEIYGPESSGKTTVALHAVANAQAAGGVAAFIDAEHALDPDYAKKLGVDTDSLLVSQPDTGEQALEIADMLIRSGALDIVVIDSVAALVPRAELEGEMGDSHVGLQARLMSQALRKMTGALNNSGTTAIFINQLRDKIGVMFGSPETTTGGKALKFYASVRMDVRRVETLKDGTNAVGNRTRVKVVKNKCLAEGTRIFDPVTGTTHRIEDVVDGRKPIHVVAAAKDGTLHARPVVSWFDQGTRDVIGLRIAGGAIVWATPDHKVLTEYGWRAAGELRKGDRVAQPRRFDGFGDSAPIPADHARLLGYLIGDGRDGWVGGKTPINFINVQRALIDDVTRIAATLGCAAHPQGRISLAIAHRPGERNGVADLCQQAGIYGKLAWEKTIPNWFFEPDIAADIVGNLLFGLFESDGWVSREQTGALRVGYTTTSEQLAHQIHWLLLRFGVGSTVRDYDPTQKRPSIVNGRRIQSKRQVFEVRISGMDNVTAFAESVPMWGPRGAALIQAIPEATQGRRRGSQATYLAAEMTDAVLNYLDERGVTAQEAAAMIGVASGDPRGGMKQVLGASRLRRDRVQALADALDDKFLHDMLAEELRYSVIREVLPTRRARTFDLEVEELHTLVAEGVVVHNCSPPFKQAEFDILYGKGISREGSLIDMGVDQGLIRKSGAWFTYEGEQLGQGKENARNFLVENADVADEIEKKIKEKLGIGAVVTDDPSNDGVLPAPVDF
Mtb bLac sens = beta-lactam sensitization of Mtb H37Rv. inhibition, % at 25 µM. 330,000 compounds, 0.27% hits. M. tuberculosis H37Rv growth with meropenem, percent inhibition; hits of this screen are not shown here;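 active = about 74% or more and at least 40 points above the plate without the antibiotic, then above 30% in a dose series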;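 also: growth measured after seven days incubation then overnight dye step; 0% = bacteria only wells and 100% = bacteria with antibiotic; twin plates without the antibiotic show which effects depend on it; some results filed as inactive read as strong as hits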
Arbovirus anti = blocks arbovirus infection; arbovirus infection cell-based antiviral screen; inhibition, % at 10 µM; 200,000 compounds, 0.37% hits; AID 1251;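 active = inhibition from about 30%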;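 also: bluetongue infection of BSR cells; cell survival read as ATP light after 72 h; 0% = infected wells without compound and 100% = uninfected wells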
Mtb growth = M. tuberculosis H37Rv growth inhibitors, H37Rv strain (AID 1626). M. tuberculosis H37Rv growth inhibition; higher % means a stronger effect. one-dose inhibition, % at 10 µM; IC50 in µM for titrated hits. 220,000 compounds, 0.95% hits;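 active = confirmed in a dose series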;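 also: bacteria incubated seven days before Alamar blue readout; 0% = bacteria only wells and 100% = bacteria with antibiotic wells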
YopH PTP inh = blocks Yersinia enterocolitica YopH tyrosine phosphatase; fluorescence Ex485/Em525; AID 898; inhibition, %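 (about 10 µM by stock and volumes)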; 140,000 compounds, 0.16% hits;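 active = inhibition of 50% or more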;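 also: controls were vehicle for no effect and minimum signal wells for full effect; inactives centre near -20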
Arbovirus anti repeat = further read-out of Arbovirus anti, marked with its call; inhibition, %; measured here: 10K subset replicate screen; many hits read low in the repeat;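 first of two repeat runs on a subset; 0% = infected and 100% = uninfected wells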
An asterisk follows results filed as active; · = not tested or not shown.

SMILES	RecA intein inh	Mtb bLac sens	Arbovirus anti	Mtb growth	YopH PTP inh	others
CCOC(=O)C1C(c2cccs2)NC(=O)NC1(O)C(F)(F)F (centres undefined)	-1.1	-9	-3	-14%	-22
Cc1ccccc1CNS(=O)(=O)c1ccc2c(c1)C(C)(C)C(=O)N2C	-0.3	-5	·	·	·
CCCCn1c(N)c(N(CC(C)C)C(=O)CC2CCCC2)c(=O)[nH]c1=O	1.3	-1	·	·	·
CCOC(=O)c1cccc(S(=O)(=O)N2CCOCC2)c1	6.2	0	1	6%	·
O=C(CN1C(=O)C2C3C=CC(C3)C2C1=O)Nc1cccc2c1CCCC2 (centres undefined)	0.7	-8	6	3%	-10
O=C1NN(c2ccc(F)cc2)C(=O)/C1=C\c1cnn(-c2ccccc2)c1	-1.8	78	-38	46%	·
Cc1ccc(OCCOCCN2CCCCC2)c([N+](=O)[O-])c1	3.2	-9	-17	5%	·
CCOc1ccc(NC(=O)CN(C)c2ccc(S(=O)(=O)N(C(C)C)C(C)C)cn2)cc1OCC	-1.1	-5	-9	1%	-21
NC(=O)SC/C(=N\S(=O)(=O)c1ccccc1)Nc1ccccc1	·	1	5	-2%	-34
O=C(Nc1cccc(NC(=O)C2CCCO2)c1)C1CCCO1 (centres undefined)	-0.2	-6	·	·	·
Cc1ccc(NC(=O)/C(=C/c2cccc([N+](=O)[O-])c2)NC(=O)C2CCCCC2)c(C)c1	5.6	56	-7	0%	-16
C[C@H]1C=CC(=O)O[C@H]1c1ccccc1	-1.6	·	·	-4%	·
COc1cccc(NC(=O)CSCC(=O)Nc2ccccc2)c1	1.2	-5	5	-1%	-21
O=C1NC(=O)N(c2ccccc2F)C(=O)/C1=C/c1cn(CC(=O)N2CCOCC2)c2ccccc12	0.6	9	·	·	·
COc1ccccc1NC(=O)CSc1nnc(Cc2cccn2C)n1CCc1ccccc1	7.3	-3	0	2%	-15
Cc1cccn2c(=O)c(C(=O)NCCCN3CCCCC3C)c(O)nc12 (centres undefined)	1.4	0	·	·	·
Cc1nn(C(C)C(=O)NC2C(=O)N3C(C(=O)O)=C(CSc4nnnn4C)CSC23)cc1Cl (centres undefined)	-1.9	73	4	-6%	·
CCCn1nc(NC(=O)c2ccco2)c2cc3ccc(C)cc3nc21	-14	3	·	-7%	·
COc1cccc(NC(=O)CC2C(=O)NC3CCCCC3N2C(=O)c2ccc(F)cc2)c1 (centres undefined)	-1.2	-5	3	5%	-1
COc1cccc(CNc2cnc3ccccc3c2)c1O	0.5	-3	-8	29µM*	-11
O=C(N/N=C/c1ccc(-c2ccc(Cl)c(C(=O)O)c2)o1)c1cc2c(ccc3ccccc32)o1	-95	32	·	17%	·
CCOC(=O)N/N=C/c1ccc(F)cc1F	2.2	8	-6	-3%	-23
Cc1[nH]nc2c1C(c1cc(Br)cs1)C(C#N)=C(N)O2 (centres undefined)	53*	-2	-17	7%	-3
O=C(Nc1ccc2c(c1)OCCO2)c1ccccc1	-2.1	-6	·	·	·
CC(C)(C)NC(=O)C(c1ccc(F)cc1)N(Cc1cccs1)C(=O)c1ccc(CN2CCOCC2)o1 (centres undefined)	0.8	-2	-4	-4%	·
CCS(=O)(=O)N1CCN(C(=O)c2ccco2)CC1	0.5	3	14	-1%	-9
CCOc1ccc(CCNC(=O)c2cc3c(s2)CS(=O)(=O)C3)cc1OCC	-1.6	-14	·	·	·
O=C(c1ccccc1)c1nc[nH]c1C(=O)Nc1ccccc1	-1.7	73	-11	-5%	-43
CCC(C)c1ccc(NC(=S)NC(C)C2CCCO2)cc1 (centres undefined)	4.0	-7	5	-3%	·
NC(=O)CSc1nnc(-c2ccccc2)c(-c2ccccc2)n1	5.0	-3	·	·	·

19 structures from above, sorted by SMILES length, low to high.
SMILES	RecA intein inh	Mtb bLac sens	Arbovirus anti	Mtb growth	YopH PTP inh	others
CCOC(=O)N/N=C/c1ccc(F)cc1F	2.2	8	-6	-3%	-23
COc1cccc(CNc2cnc3ccccc3c2)c1O	0.5	-3	-8	29µM*	-11
O=C(Nc1ccc2c(c1)OCCO2)c1ccccc1	-2.1	-6	·	·	·
CCS(=O)(=O)N1CCN(C(=O)c2ccco2)CC1	0.5	3	14	-1%	-9
CCC(C)c1ccc(NC(=S)NC(C)C2CCCO2)cc1 (centres undefined)	4.0	-7	5	-3%	·
COc1cccc(NC(=O)CSCC(=O)Nc2ccccc2)c1	1.2	-5	5	-1%	-21
O=C(Nc1cccc(NC(=O)C2CCCO2)c1)C1CCCO1 (centres undefined)	-0.2	-6	·	·	·
O=C(c1ccccc1)c1nc[nH]c1C(=O)Nc1ccccc1	-1.7	73	-11	-5%	-43
NC(=O)CSc1nnc(-c2ccccc2)c(-c2ccccc2)n1	5.0	-3	·	·	·
Cc1[nH]nc2c1C(c1cc(Br)cs1)C(C#N)=C(N)O2 (centres undefined)	53*	-2	-17	7%	-3
CCCn1nc(NC(=O)c2ccco2)c2cc3ccc(C)cc3nc21	-14	3	·	-7%	·
NC(=O)SC/C(=N\S(=O)(=O)c1ccccc1)Nc1ccccc1	·	1	5	-2%	-34
Cc1cccn2c(=O)c(C(=O)NCCCN3CCCCC3C)c(O)nc12 (centres undefined)	1.4	0	·	·	·
COc1ccccc1NC(=O)CSc1nnc(Cc2cccn2C)n1CCc1ccccc1	7.3	-3	0	2%	-15
O=C1NN(c2ccc(F)cc2)C(=O)/C1=C\c1cnn(-c2ccccc2)c1	-1.8	78	-38	46%	·
COc1cccc(NC(=O)CC2C(=O)NC3CCCCC3N2C(=O)c2ccc(F)cc2)c1 (centres undefined)	-1.2	-5	3	5%	-1
CCOc1ccc(NC(=O)CN(C)c2ccc(S(=O)(=O)N(C(C)C)C(C)C)cn2)cc1OCC	-1.1	-5	-9	1%	-21
CC(C)(C)NC(=O)C(c1ccc(F)cc1)N(Cc1cccs1)C(=O)c1ccc(CN2CCOCC2)o1 (centres undefined)	0.8	-2	-4	-4%	·
Cc1ccc(NC(=O)/C(=C/c2cccc([N+](=O)[O-])c2)NC(=O)C2CCCCC2)c(C)c1	5.6	56	-7	0%	-16

(next part)
SMILES	RecA intein inh	Mtb bLac sens	Arbovirus anti	Mtb growth	YopH PTP inh	others
CCN(CC)S(=O)(=O)c1cccc(-c2n[nH]c(=S)n2/N=C/c2ccc(OC(F)F)cc2)c1	5.2	0	15	-2%	-36
CCOC(=O)c1c(C)[nH]c(C(=O)COC(=O)c2ccccn2)c1C	-1.2	-10	6	3%	-15
Cc1cc(C)cc(Oc2ccc(S(=O)(=O)N3CCN(C)CC3)cn2)c1	-0.8	-9	·	·	·
COc1cc2ccnc(Cc3cccc(OC)c3OC)c2cc1OC	6.4	0	4	1%	·
O=C(Nc1ccc(C(=O)N2CCCCC2)cc1)c1cccs1	2.4	1	·	·	·
COc1cc(CCC(=O)Nc2ncc(C)s2)cc(OC)c1OC	-0.1	-3	·	·	·
COc1ccc(OCC(=O)Nc2ccc3c(c2)nc2n3CCSC2)cc1	1.2	-5	-9	-2%	-38
O=C1c2ccncc2C(=O)N1Cc1cccc(Cl)c1	1.7	-5	7	-4%	-15
COc1ccccc1N1CCN(C(CNC(=O)c2ccc3c(c2)OCO3)c2cccnc2)CC1 (centres undefined)	0.5	-7	-8	-3%	-35
CCCOC(=O)C1C2C=C[C@]3(CN(CCc4ccccc4)C(=O)[C@H]13)O2 (some centres undefined)	2.3	0	1	2%	-19
COc1cccc(C(=O)O/N=C(\C)c2cnccn2)c1	1.3	15	4	30%	·
CC1Cc2ccccc2N1C(=O)CSc1nnc(-c2ccc(S(=O)(=O)N3CCCC3)cc2)n1C (centres undefined)	0.7	-1	-5	3%	-30
O=C(Nc1ccon1)c1sc2ccccc2c1Cl	-1.5	-6	2	5%	-22
Cc1cccc2cc(COC(=O)C(C)(C)C)c(=O)[nH]c12	-2.0	-8	2	-5%	4
CCC(CC)COC(=O)C1=C(C)NC(=O)NC1c1ccc([N+](=O)[O-])cc1 (centres undefined)	-1.8	3	·	·	·
CN1/C(=C\C=C(/C#N)C(=O)Nc2ccc(Cl)cc2)C(C)(C)c2ccccc21	-8.0	9	7	8%	2
Cc1[nH]c2ccc(OC(F)(F)F)cc2c1CCNCc1ccc(Cl)cc1	8.0	100	·	·	·
Cc1ccc(-c2cc(C(=O)NCc3ccco3)no2)cc1	-1.5	6	-2	-3%	13
COc1cccc(N2CCN(C(=O)c3cccc(N4C(=O)NC5CC4(C)Oc4c(OC)cccc45)c3)CC2)c1 (centres undefined)	-1.6	4	·	·	·
CCC(=O)Nc1c(C)nn(-c2ccc(C)c(C)c2)c1C	-3.7	4	3	4%	-35
COC(=O)c1ccccc1NC(=O)NCCc1ccc(OC)c(OC)c1	-2.5	-2	5	8%	·
CCOc1ccccc1NC(=O)CN1C(=O)COc2ccc(C)cc21	0.8	-3	·	·	·
CCOC(=O)c1cc2ccccc2nc1C	-0.7	5	4	-4%	-25
Clc1cccc(CN2C3=NCCCN3c3ccccc32)c1	11	8	·	·	·
CCC(C)NC(=O)C1CCCCN1S(=O)(=O)c1ccc(F)cc1 (centres undefined)	-1.0	3	6	-3%	-10
CCCC(c1nnnn1Cc1ccccc1)N1CCC(C(N)=O)CC1 (centres undefined)	-0.8	-4	6	6%	-49
COc1ccc2[nH]c(=O)c(CN(Cc3cccs3)C(=S)NCC3CCCO3)cc2c1 (centres undefined)	3.6	-3	·	-5%	·
Cc1ccc(CNC(=O)c2cnccn2)cc1	-0.2	6	-2	5%	-13
O=C(CN1C(=O)c2ccccc2S1(=O)=O)NCc1c(F)cccc1F	-2.1	0	·	·	·
Cc1ccc(C(=O)NCCCNC(=O)Cc2ccc(Cl)cc2)cn1	2.2	-9	·	·	·
Cc1ccnc(NC(=O)CCCc2ccccc2)c1	3.8	-2	-9	-4%	-4
Cc1cc(C(=O)Nn2c(-c3ccc(Br)cc3)nc3ccccc3c2=O)ccc1[N+](=O)[O-]	9.6	-4	-2	7%	-19
Cn1ccnc1SCc1ccc(Cl)cc1Cl	-0.2	-3	·	·	·
CCNC(=S)Nc1cccc(Cl)c1C	-3.0	-13	3	-3%	-46
CCN(CC)CC1C(=O)N(c2ccc(OC)cc2)C1c1ccccc1 (centres undefined)	-1.4	-1	·	·	·
CN(C)Cc1nc2c([nH]1)c(=O)n(C)c(=O)n2C	-5.3	-10	2	-7%	-1	Arbovirus anti repeat=1
CCCCC(=O)N/N=C/c1cc([N+](=O)[O-])ccc1N1CCOCC1	0.4	-1	1	16%	-34
CN(C)S(=O)(=O)N1CCN(C(=O)c2ccccc2Cl)CC1	-1.0	6	8	6%	-37
COc1ccc(-c2nn(-c3ccccc3)cc2C#N)cc1	-2.8	-2	-6	15%	-17
C=CCc1cccc(/C=N/c2nc3ccccc3n2CC)c1O	-1.7	6	-3	1%	-17
O=C(CN1CCN(S(=O)(=O)c2ccc(F)cc2)CC1)NCc1cccs1	0.6	3	·	·	·
Cc1cc(C)n(-c2nncn2/N=C/c2ccccc2F)n1	-0.2	-1	1	-7%	-59

An excerpt (hit frequency here may not be typical).
